# ALR H2O2 inh: inhibitors of human ALR sulfhydryl oxidase, primary screen, biochemical, H2O2 detection, HRP-luminol luminescence, single point; FAD-linked sulfhydryl oxidase ALR (Homo sapiens), P55789; purified ALR, DTT oxidation; inhibition, % (no concentration beside the values); hit rate 3.8% among 290,000;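 active means mean and each replicate at 75% or more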;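 further: stock transfer was 7.5 nL into about 7.5 µL; 0% = neutral wells and 100% = wells with inactivated enzyme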
# Vif A3G: inhibitors of Vif binding to APOBEC3G peptide, primary screen, biochemical, TR-FRET, GST-Vif 1-94, biotin-A3G peptide, dose response retest (AID 1117319). TR-FRET GST-Vif / biotin-A3G peptide binding; higher % means a stronger effect; test concentration not given here; strong numbers were not always called active. inhibition, %; hits with a dose series show IC50 in µM. hit rate 0.57% among 260,000;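 active means above the screen mean plus three standard deviations and confirmed in dose response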;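 further: Vif residues 1-94 fused to GST binding biotinylated APOBEC3G peptide 110-148; 0% = full assay without inhibitor and 100% = GST in place of GST-Vif; retest series ran down from 100 µM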
# AF4-AF9 inh: inhibitors of AF4 peptide binding to AF9, primary screen, biochemical, AlphaScreen, biotin-AF4 peptide, FLAG-AF9, single point; Protein AF-9 (Homo sapiens), P42568; inhibition, % at 10 µM; hit rate 0.47% among 350,000; AID 651704, 2012;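 active means every replicate reaching a set inhibition limit, whatever the replicate mean, cut at about 25% in these data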;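 further: 0% = plate neutral control median and 100% = total signal loss; the record names both 10 and 1 µM as test concentration; the first replicate is given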
# Target sequence (P42568 whole entry, looked up): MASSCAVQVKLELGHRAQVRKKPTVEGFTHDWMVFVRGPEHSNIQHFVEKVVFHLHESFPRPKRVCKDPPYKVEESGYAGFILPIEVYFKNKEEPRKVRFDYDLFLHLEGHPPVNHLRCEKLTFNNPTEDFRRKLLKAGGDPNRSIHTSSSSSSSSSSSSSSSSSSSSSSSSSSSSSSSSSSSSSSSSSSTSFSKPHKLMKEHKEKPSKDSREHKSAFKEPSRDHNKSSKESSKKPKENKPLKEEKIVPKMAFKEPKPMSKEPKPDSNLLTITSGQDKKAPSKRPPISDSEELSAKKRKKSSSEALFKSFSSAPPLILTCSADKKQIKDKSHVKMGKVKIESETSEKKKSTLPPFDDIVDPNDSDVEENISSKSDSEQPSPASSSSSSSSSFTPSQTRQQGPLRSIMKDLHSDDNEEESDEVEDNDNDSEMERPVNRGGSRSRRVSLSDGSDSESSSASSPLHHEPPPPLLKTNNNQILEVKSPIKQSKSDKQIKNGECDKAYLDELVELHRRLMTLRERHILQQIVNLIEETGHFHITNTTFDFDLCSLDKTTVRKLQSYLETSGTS
# Ecoli rRNA inh: reduced GFP signal of wild-type E. coli, primary screen, bacterial rRNA inhibitor project, GFP/RFP fluorescence, OD600, single point; E. coli WT GFP vs humanized-ribosome RFP mutants, 24 h; stronger effect = lower value; DMSO median 0, no signal -100; GFP signal change (wild-type ribosome), % (concentration not given with the values); hit rate 1.6% among 350,000; AID 720706, 2013;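 active means significant combined selectivity score with lowered wild-type GFP, culture density cut under 30%, mutant RFP and density less affected; inactive means any of these conditions unmet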; further: one replicate is shown; some compounds called inactive have numbers as strong as hits
# HNF4A DNA FP: change in binding of human HNF4A to DNA, primary screen, biochemical, fluorescence polarization, FITC-DNA. Hepatocyte nuclear factor 4-alpha (Homo sapiens), P41235. 1 h. activity change, % at 10 µM. hit rate 0.3% among 360,000; in the data active means activity change above about 30%, passing the limit was not always enough;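 further: controls were the assay level and a saturating level of protein; the project sought stronger binding though the title names inhibitors; some compounds called inactive have numbers as strong as hits; positive values seem to mean higher polarization but the record does not say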
# Target sequence (P41235 whole entry, looked up): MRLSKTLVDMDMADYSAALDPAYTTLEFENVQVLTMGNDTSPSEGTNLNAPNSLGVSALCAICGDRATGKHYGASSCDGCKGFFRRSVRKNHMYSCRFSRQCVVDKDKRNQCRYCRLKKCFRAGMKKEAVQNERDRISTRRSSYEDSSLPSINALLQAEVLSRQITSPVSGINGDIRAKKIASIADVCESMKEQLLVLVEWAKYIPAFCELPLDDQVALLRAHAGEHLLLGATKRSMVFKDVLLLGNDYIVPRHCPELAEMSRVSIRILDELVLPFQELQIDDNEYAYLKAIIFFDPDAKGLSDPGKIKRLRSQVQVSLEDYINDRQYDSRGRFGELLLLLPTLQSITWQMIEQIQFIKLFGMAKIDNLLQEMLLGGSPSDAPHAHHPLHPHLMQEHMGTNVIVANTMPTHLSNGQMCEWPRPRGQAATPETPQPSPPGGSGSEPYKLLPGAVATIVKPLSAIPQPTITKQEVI
# FGF22 binding: binders of human FGF22 protein, primary screen, FGF22 synaptogenesis inhibitor project, biophysical, thermal shift, single point; recombinant FGF22 thermal shift, SYPRO orange fluorescence; percent of sucrose octasulfate shift, DMSO zero; calls only at 9.99 µM; hit rate 1.5% among 340,000; AID 651658, 2012;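 active means melting point raised past a set limit in the mean and every replicate; three in four hits are not shown here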
# E coli growth: E. coli growth inhibition, primary screen, OD600 | Escherichia coli growth, 23 h; stronger effect = lower value | OD600 absorbance (test concentration not listed) | hit rate 0.21% among 330,000 | AID 1053175, 2014;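 active means OD600 absorbance below the run mean of sample wells minus 3.6 SD, in any replicate, cut at about 0.56 in these data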;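 further: stock transfer was 300 nL into about 60 µL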
# Ecoli rRNA inh OD600: further read-out of Ecoli rRNA inh, marked with its call; OD600 change, %; measured here: OD600 growth;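 optical density of the mix in the first replicate; 0 = DMSO median and -100 = no signal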
# Ecoli rRNA inh RFP: recorded beside Ecoli rRNA inh, whose call it bears; RFP signal change, %; measured here: RFP humanized mutant strains;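 first replicate; 0 = DMSO median and -100 = no signal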
# The depositor's hits bear a star; i = inactive; nt = not tested or not shown. This is a subset (hit frequency here may not be typical).
# Value order – HNF4A DNA FP, Vif A3G, AF4-AF9 inh, ALR H2O2 inh, E coli growth, Ecoli rRNA inh, Ecoli rRNA inh OD600, FGF22 binding, Ecoli rRNA inh RFP
> COc1ccc(NC(=O)CN(C)C(=O)Cc2c(C)nc3ccccc3c2C)cc1
    -0.7, 3%, -1.6, 2, 0.63, 1, 6, i, 2.2
> C=CCC[C@@H](Cc1ccc(F)cc1)C(=O)OC[C@@H](NC(=O)[C@@H](CC=C)CC(=O)N(CCO)Cc1ccccc1)c1ccccc1
    -0.8, nt, -11, 1, nt, 3, 11, i, 4.3
> Cc1cc2nc(-c3ccc(SCC(=O)N4CCc5ccccc54)nc3)[nH]c2cc1C
    2.7, -5%, -35, -5, 0.72, 2, 6, nt, 8.8
> C[C@@H]1CN([C@@H](C)CO)C(=O)Cc2cc(NS(=O)(=O)c3cccs3)ccc2O[C@@H]1CN(C)Cc1ccc(C(=O)O)cc1
    nt, nt, -3.1, nt, nt, 1, -1, i, 1.3
> CNC(=O)/C=C1\NC(C)(C)Cc2ccccc21
    -1.1, 0%, nt, -4, 0.66, nt, nt, nt, nt
> C/C(=N/NS(=O)(=O)c1ccc(C)cc1C)c1c[nH]c2ccccc12
    0.7, nt, 1.4, 71, nt, -19, -14, i, 1.3
> COc1ccc(CC(=O)OCc2csc(CC(=O)Nc3ccc(C)cc3)n2)cc1
    0.5, 6%, -11, 4, 0.68, -7, -2, i, 4.8
> COC(CNC(=O)c1cc(C)nn1-c1ccccc1)OC
    -1.5, 0%, nt, -7, 0.66, nt, nt, nt, nt
> C[C@H](CO)N1C[C@H](C)[C@H](CN(C)CC2CCCCC2)Oc2ccc(NC(=O)Nc3ccc4c(c3)OCO4)cc2C1=O
    nt, nt, 10.0, nt, nt, 3, -9, i, -2.4
> O=C1NC[C@@H](CCCCN2C[C@H](Cc3ccc(O)cc3)N(CCC3CCCCC3)C(=O)C2=O)N(Cc2ccccc2)C1=O
    -1.3, nt, -3.3, nt, nt, -10, -19, i, 7.7
> CO[C@H]1CN(C)C(=O)c2cc(NS(=O)(=O)c3ccccc3)ccc2OC[C@H](C)NC[C@@H]1C
    nt, nt, -12, nt, nt, 6, -3, i, 0.6
> CCCN1CCN(C(=S)Nc2ccc([N+](=O)[O-])cc2)CC1
    4.6, -2%, nt, 6, 0.6, nt, nt, nt, nt
> CCCn1c(C2CC(=O)N(c3ccc(C)cc3)C2)nc2ccccc21 (configuration not stated)
    2.7, 3%, nt, 0, 0.7, nt, nt, nt, nt
> Nc1c(-c2ccc(Cl)cc2)cnc2c(-c3ccccc3)cnn12
    4.6, -4%, -2.5, nt, 0.72, 4, 3, i, -0.1
> COC(=O)c1cn(C(=O)c2ccco2)c2ccccc12
    3.0, 2%, nt, -4, 0.78, nt, nt, nt, nt
> C[C@H]1CN([C@@H](C)CO)C(=O)c2cc(NC(=O)Cc3cn(C)c4ccccc34)ccc2O[C@H]1CN(C)C
    nt, nt, 5.0, nt, nt, -1, 10, i, 0.2
> CC(C)(C)OC(=O)C[C@H]1C/C=C\C[C@H](CC(=O)N(CCO)Cc2ccccc2)C(=O)NC[C@H](c2ccccc2)OC1=O
    5.5, nt, -1.0, -11, nt, -5, -6, i, 4.6
> CCOC(=O)c1sc2nc(CC(=O)OC)nc(NCCN(CC)CC)c2c1C
    4.1, 3%, nt, -3, 0.67, nt, nt, nt, nt
> O=C(NNc1nc2ccccc2s1)c1ccccc1F
    2.3, 5%, 1.7, 97*, 0.62, -41*, -26*, i, -13*
> Cc1ccccc1C(=O)NC(=S)Nc1ccc(N2CCN(C(=O)c3ccccc3)CC2)cc1
    -2.3, -5%, 1.7, -1, 0.74, 5, 5, i, 0.1
> CN1CCN(C(=O)C[C@@H]2CC[C@@H]3[C@H](COc4ccc(NC(=O)c5ccc(F)c(F)c5)cc4C(=O)N3C)O2)CC1
    nt, nt, -0.9, nt, nt, 0, -3, i, -2.8
> CCOC(=O)c1cnc2cc(C)nn2c1C
    0.1, 0%, nt, 6, 0.69, nt, nt, nt, nt
> COC(=O)C1CCN(C(=O)COC(=O)c2cc(-c3cccs3)nn2-c2ccccc2)CC1
    0.1, 5%, -0.5, 2, 0.64, -12, -15, i, -2.6
> O=C1C2C3C=CC(C2C(=O)N1c1cccc(O)c1)C1C2C(=O)N(c4cccc(O)c4)C(=O)C2C31 (configuration not stated)
    3.5, 14%, 10, nt, 0.73, 17, 6, nt, 2.5
> Cc1ccc(S(=O)(=O)NCC[C@H]2CC[C@H](NC(=O)NC(C)C)[C@@H](CO)O2)cc1
    nt, nt, -16, nt, nt, 4, 7, i, -3.3
> CCOC(=O)Cc1cc(=O)n2[nH]c(C)cc2n1
    -0.1, 75µM*, nt, nt, 0.71, nt, nt, nt, nt
> COCc1ccc(CN2CCCC(C(=O)Nc3ccc(-c4cccc(OC)c4)cc3)C2)o1 (configuration not stated)
    6.0, nt, 3.7, -9, 0.66, -43, -70, i, -10
> COc1ccc(CCC(=O)Nc2cc(S(=O)(=O)N3CCOCC3)ccc2OC(C)C)cc1
    1.1, -11%, 3.1, -7, 0.69, 3, -15, i, 6.9
> COc1ccc2c3c([nH]c2c1)[C@@H](CO)N(Cc1nccs1)CC31CCN(C(=O)C2CCOCC2)CC1
    nt, nt, -0.4, nt, nt, 4, 2, i, 1.6
> COc1ccc(OC)c2sc(N3CCN(C(=O)c4ccc([N+](=O)[O-])s4)CC3)nc12
    -2.6, 3%, 5.6, -22, 0.69, -58, -76, i, -19
> CC(NC(=O)C1CCCN(C(=O)c2ccc(Cl)cc2)C1)c1cccc(C(F)(F)F)c1 (configuration not stated)
    -1.1, -10%, -1.5, -4, 0.67, -28, -35, i, -6.8
> COc1ccc(N2CCN(C(=O)c3cccc(N4C(=O)C5CC=CC(C)C5C4=O)c3)CC2)cc1 (configuration not stated)
    -5.0, 15%, nt, nt, 0.69, nt, nt, nt, nt
> Cc1noc(C)c1NC(=O)Nc1ccc2c(c1)C(=O)N([C@@H](C)CO)C[C@@H](C)[C@@H](CN(C)Cc1ccc(C(F)(F)F)cc1)OCCCC[C@H](C)O2
    nt, nt, 5.8, nt, nt, -4, -16, i, 2.3
> Clc1cccc(N/N=C/c2ccncc2)c1
    -0.6, 13%, nt, 95*, nt, nt, nt, nt, nt
> CC(=O)NCCc1ccc(S(=O)(=O)Nc2ccc3c(c2)OCCO3)cc1
    1.9, nt, -2.7, -4, 0.66, 7, 3, i, -1.4
> COc1cc(NC(=O)c2cnn3c(C(F)F)cc(C4CC4)nc23)c(OC)cc1Cl
    -0.6, 27%, 2.9, 0, 0.7, 11, 5, i, -0.7
> O=C(N[C@@H]1CC[C@H](CCNS(=O)(=O)c2ccccc2)O[C@@H]1CO)c1cccnc1
    nt, nt, -0.6, nt, nt, 1, 3, i, -1.5
> CCn1nccc1C(=O)Nc1cccc(C)c1C
    1.5, nt, 0.0, -4, 0.66, 2, 3, i, -1.6
> Cc1nn(-c2ccccc2)c2c1C(c1ccc([N+](=O)[O-])cc1)C(C#N)=C(N)O2 (configuration not stated)
    1.6, 7%, 6.0, 38, 0.68, -1, 3, i, -3.1
> O=C(Nc1cccc(F)c1)N[C@H]1CC[C@@H](CCNS(=O)(=O)c2cccc(Cl)c2)O[C@@H]1CO
    nt, nt, 3.2, nt, nt, -2, -18, i, 1.6
> Cc1ccc(C(=O)NCC(=O)OCc2c(F)cccc2Cl)cc1
    0.4, -7%, -0.3, 0, 0.7, -11, -7, i, -1.6
> Cc1ccc2nc(NCCNC(=O)c3ccccc3)c(C#N)cc2c1
    -1.5, nt, -0.6, nt, 0.68, 4, 4, i, 0.5
> O=C(CSc1cccc2cccnc12)N/N=C/c1ccc(F)cc1
    -5.8, nt, nt, -4, nt, -3, 8, i, 0.0
> COc1cccc(C(=O)N2CCN(Cc3cn[nH]c3-c3ccc(F)cc3F)CC2)c1
    -1.3, 28%, -0.5, -5, 0.66, 11, -6, i, 0.4
> O=S(=O)(N[C@H]1CC[C@@H](CCNS(=O)(=O)c2ccccc2Cl)O[C@@H]1CO)c1ccccc1
    nt, nt, 0.6, nt, nt, -3, -4, i, -0.5
> COc1ccccc1NC(=O)N1CCCCN2[C@H](C1)[C@@H](c1ccc(-c3cccc(C#N)c3)cc1)[C@@H]2CO
    nt, nt, -4.1, nt, nt, -8, -1, i, 2.7
> O=S(=O)(CCc1nc2ccccc2[nH]1)c1ccc(Cl)cc1
    -3.2, 1%, 0.0, 4, nt, nt, nt, i, nt
> C[C@H](CO)N1C[C@H](C)[C@H](CN(C)C(=O)Nc2ccc3c(c2)OCO3)OCCCC[C@H](C)Oc2ccc(NS(C)(=O)=O)cc2C1=O
    nt, nt, -0.6, nt, nt, -3, -3, i, 0.2
> Cc1nnc2ccc(-c3ccc(NS(=O)(=O)c4ccc(F)cc4F)cc3)nn12
    2.4, 7%, -0.4, -2, 0.7, 10, 3, i, 1.0
> Cc1ccnc(NC(=O)Nc2cccc(F)c2)n1
    -1.9, 4%, 2.1, -1, 0.67, 15, 14, i, 1.3
> CCOc1ccc(NC(=O)CN(C)C(=O)CC2CC3CCC2C3)cc1OCC (configuration not stated)
    2.5, -2%, 4.9, -3, 0.71, -2, -11, i, 1.7
> C[C@H](CO)N1C[C@H](C)[C@H](CN(C)C(=O)Nc2ccccc2F)Oc2ncc(C#CCN(C)C)cc2C1=O
    nt, nt, -1.2, nt, nt, 3, 12, i, -3.1
> Cc1nc2ccccc2c(=O)n1NC(=O)Cc1ccc([N+](=O)[O-])cc1
    2.7, -6%, -0.8, 0, 0.69, 10, 18, i, 1.1
> CCOC(=O)C(NC(=O)c1cccnc1)(Nc1cccc(C)n1)C(F)(F)F (configuration not stated)
    7.7, 3%, nt, 7, 0.8, nt, nt, nt, nt
> CCOC(=O)[C@H]1[C@H]2COc3ccc(C)cc3[C@@H]2N2C(=O)c3cc(C)ccc3NC(=O)[C@@]12C
    -2.1, nt, -40, 0, nt, -12, -14, i, -2.8
> CCOc1ncccc1C(=O)Nc1ccc(OC)c(S(=O)(=O)N2CCCCC2)c1
    -4.1, -10%, 0.5, nt, 0.74, 9, 8, i, -1.5
> COc1cccc(NC(=O)COc2nc3ccccc3nc2C)c1
    4.2, 6%, -3.7, -4, 0.66, 10, 17, i, 13
> CC(C)(C)Cc1c(-c2ccco2)nc2ccc(Cl)cn12
    6.2, nt, 2.8, nt, nt, 28, 25, i, 5.1
> COC(=O)Cn1c2nc3ccccc3nc2c2cccc(C)c21
    1.8, -3%, -1.6, -11, 0.65, 12, 23, i, 0.8
> CCOC(=O)N1CCC(N2C(=O)c3ccccc3C2Nc2cc(Cl)c(OC)cc2OC)CC1 (configuration not stated)
    2.3, 7%, 18, -41, 0.72, -2, 2, i, 3.1

# Source: PubChem BioAssay (several laboratories)
